Compound activity: PubChem, several laboratories
GALR2 ag: activates the human galanin receptor 2 | O43603 | GALR2-expressing cells, agonist activation read-out | activation, %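 (tested at 5 µM)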 | 140,000 tested, 0.48% active;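 active means above mean plus 3 SD of all compounds, about 5% in these data, not always enough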;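 further: 0% = vehicle buffer wells and 100% = reference agonist at full effect; tested in CHO reporter cells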
Target sequence (O43603 whole entry, looked up): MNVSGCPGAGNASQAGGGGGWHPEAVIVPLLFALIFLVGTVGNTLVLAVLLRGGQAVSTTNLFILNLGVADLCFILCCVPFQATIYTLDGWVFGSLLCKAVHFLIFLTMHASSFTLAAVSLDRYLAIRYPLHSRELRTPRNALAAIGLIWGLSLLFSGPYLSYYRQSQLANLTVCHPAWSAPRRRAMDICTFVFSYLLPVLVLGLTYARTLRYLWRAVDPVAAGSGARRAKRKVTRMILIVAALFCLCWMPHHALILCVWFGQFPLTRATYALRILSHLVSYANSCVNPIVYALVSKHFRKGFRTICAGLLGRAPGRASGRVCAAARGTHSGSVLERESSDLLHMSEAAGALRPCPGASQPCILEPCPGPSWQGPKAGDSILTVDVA
INS promoter inh: TRM-6 insulin promoter activity inhibition. 130,000 tested, 0.9% active. TRM-6 cells (human fetal islet line), insulin promoter-eGFP reporter, imaging; reporter expression induced with tamoxifen. inhibition, % at 2 µM. AID 1273;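 active means inhibition above the mean plus 3 SD, with well images judged a real hit on visual review, cut at about 60% in these data, passing the limit was not always enough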
PKD1 kinase inh: PKD1 (human) kinase inhibition | inhibition, %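 (about 10 µM by stock and volumes)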 | PKD1 kinase fluorescence polarization assay | AID 797 | Q15139 | 200,000 tested, 0.056% active;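 active means inhibition of 50% or more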;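 further: controls were vehicle for no effect and a reference inhibitor for full effect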
RGS16-Gao HTS: modulates binding between human RGS16 and Galphao; O15492+P09471; bead-based flow cytometry RGS16-Galphao binding, fluorescence; actives lie on both sides; binding response (% of control), % at 10 µM; 220,000 tested, 0.38% active; AID 1441;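 active means below 25% or above 175%, edge rows of some plates excepted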;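 further: Galphao activated by GDP with aluminum fluoride before binding; 100% = wells without compound and 0% = beads without RGS; some results beyond the cut were filed as inactive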
Target sequence (O15492 whole entry, looked up): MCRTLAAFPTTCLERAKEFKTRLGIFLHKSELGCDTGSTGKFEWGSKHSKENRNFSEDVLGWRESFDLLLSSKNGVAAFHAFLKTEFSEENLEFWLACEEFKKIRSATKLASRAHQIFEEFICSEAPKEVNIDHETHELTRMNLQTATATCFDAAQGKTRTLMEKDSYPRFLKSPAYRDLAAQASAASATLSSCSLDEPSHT
Target sequence (P09471 whole entry, looked up): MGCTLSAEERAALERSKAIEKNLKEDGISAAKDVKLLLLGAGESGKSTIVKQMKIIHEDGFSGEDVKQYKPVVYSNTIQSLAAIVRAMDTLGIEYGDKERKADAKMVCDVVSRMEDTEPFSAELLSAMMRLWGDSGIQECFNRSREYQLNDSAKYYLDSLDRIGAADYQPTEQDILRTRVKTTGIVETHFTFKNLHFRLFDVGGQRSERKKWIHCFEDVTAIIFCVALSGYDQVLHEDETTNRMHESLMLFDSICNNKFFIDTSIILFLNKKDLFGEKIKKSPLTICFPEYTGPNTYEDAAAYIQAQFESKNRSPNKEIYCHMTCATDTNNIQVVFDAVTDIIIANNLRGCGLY
HSV augment: HSV replication enhancement; HSV replication augmentation in cells, fold increase; 220,000 tested, 0.005% active; AID 1956; maximum fold increase;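 active means peak rise of 1.5-fold or more in the series; tested in PC3 cells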;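 further: first round at 10 µM; read as green reporter fluorescence; hits show the peak of a series up to 25 µM; 1 = signal of infected wells without compound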
INS promoter inh cell count: second read-out of INS promoter inh, no call of its own (marks repeat the call); normalized cell count, %; measured here: cell count, toxicity; reference of the scale not given here;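 cells exposed to compound for 48 h; stained nuclei by imaging scaled within each plate; lower means fewer cells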
HSV augment primary fold: recorded beside HSV augment, whose call it bears; fold increase; compound at 10 µM; measured here: primary screen fold increase 10 uM; tested in PC3 cells;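 GFP signal in the first replicate; 1 = infected wells without compound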
* hit, by the source's call; i = inactive; · = no result given.

SMILES	GALR2 ag	INS promoter inh	INS promoter inh cell count	PKD1 kinase inh	RGS16-Gao HTS	HSV augment	HSV augment primary fold
CCn1c(SCc2ccc(Cl)cc2)nnc1-c1ccccc1	-1.5	-46	92	-4	61	i	0.88
COc1ccc2c(c1OC)C(=O)N(c1ccc(C)c(C)c1)C2=O	0.0	-82	95	0	95	i	1
CN(Cc1cccs1)C(=O)/C=C/c1ccccc1[N+](=O)[O-]	·	32	169	-6	107	i	0.95
Fc1ccc(-c2csc(/C=C/c3ccc4c(c3)OCO4)n2)cc1	-1.5	-55	151	4	110	i	1.2
COc1ccc(Br)c2c1C(=O)CC2	·	·	·	·	102	i	1.1
CC(C)(C(=O)O)n1cncn1	·	·	·	4	100	i	1
Cn1ccnc1Sc1ccc(/C=N/NC(=O)c2ccccc2[N+](=O)[O-])cc1[N+](=O)[O-]	-2.5	-30	81	-9	111	i	0.91
Cn1ccnc1C(=O)C1CCCN(Cc2cn[nH]c2-c2ccc(-c3ccccc3)cc2)C1 (centres undefined)	·	·	·	4	99	i	0.91
CC(=O)N1CCCc2cc(S(=O)(=O)N3CCN(C4CCCCC4)CC3)ccc21	-1.1	·	·	-21	97	i	1
CC1(C)CC(=O)C2=C(C1)OC(N)=C(C#N)C2c1cn(-c2ccccc2)nc1-c1ccc(F)cc1 (centres undefined)	-0.6	·	·	-4	96	i	0.97
O=C(O)C(Cc1c[nH]c2ccccc12)N1C(=O)C2C3c4ccccc4C(c4ccccc43)C2C1=O (centres undefined)	·	6	171	3	111	i	0.93
COc1ccccc1N(C)S(=O)(=O)c1ccc(Cl)c(C(=O)OCc2c(C)noc2C)c1	·	-65	87	6	88	i	1
Cc1nn(Cc2ccccc2Cl)c(C)c1C(=O)NC1=NCCS1	-2.0	12	89	-4	101	i	0.64
O=C(C1CC1)N1CCN(C(c2ccccc2)c2ccccc2)CC1	-1.6	-23	35	1	101	i	0.86
CCC(=O)NCc1c(C)c(C)n(Cc2ccccc2)c1-n1cccc1	·	-27	91	-5	98	i	0.94
CC(C)Oc1ccc(OCCCN2CCCCCC2)cc1	-1.3	-26	89	-1	93	i	0.99
CCOC(=O)N1CCN(C(=O)CN(c2cccc(C(F)(F)F)c2)S(=O)(=O)c2ccccc2)CC1	-0.3	·	·	7	119	i	1.2
CC(C)Nc1nc2n(c(=O)n1)CCN2C(C)C	-2.0	50	111	-6	103	i	0.9
C[C@@]12CC(=O)NC1N(C(=O)c1ccccc1)C(c1ccccc1OC(=O)c1ccccc1)C2 (some centres undefined)	-3.9	-22	122	-6	105	i	0.98
COc1cc2c(cc1OC)C(C)N(C(C)=O)CC2 (centres undefined)	-1.8	81*	37*	-4	85	i	1
CCSc1nc(O)cc(=O)[nH]1	·	·	·	·	103	i	1.1
O=C(O)c1ccc(N(c2ccccc2)c2ccccc2)cc1	-1.4	-500	40	1	43	i	1.1
Cc1cc(NC(=O)COc2nnc(-c3ccccc3)c3ccccc23)no1	-1.2	-64	164	-15	278	i	1.1
Cc1cc(Cl)c(S(=O)(=O)N2CCCC2)cc1OCC(N)=O	·	·	·	0	103	i	0.93
CCn1c(O)c(N=NC(=O)CNC(=O)/C=C/c2ccco2)c2ccccc21	-1.5	13	128	2	145	i	1.1
Cc1nn(Cc2ccccc2)c(C)c1C(=O)NCCN1C(=O)S/C(=C\c2ccc(F)cc2)C1=O	-1.4	20	123	-3	105	i	0.94
Nc1ncnc(Oc2cccc3cccnc23)c1[N+](=O)[O-]	·	·	·	1	104	i	0.71
C=CCN1c2ccccc2[C@]23C[C@@H](C(=O)OC)N(C(=O)c4ccc(Br)cc4)C2=NC(C(=O)OC)=C(C(=O)OC)[C@H]13	·	·	·	·	105	i	0.71
CCOC(=O)COc1ccc(Br)cc1C1NC(=O)NC(C)=C1C(=O)NCc1ccccc1 (centres undefined)	-1.1	-136	28	4	100	i	1
CC(C)OC(=O)CN1CCN(S(=O)(=O)c2cc(Cl)ccc2Cl)CC1	-1.3	-6	73	-11	55	i	0.92
Cc1cccc(/C=N/NC(=O)Cc2cccs2)c1	·	·	·	·	99	i	1
Nc1nc(N)nc(-c2ccccc2O)n1	0.6	12	107	41	105	i	0.9
N#CC(C(=O)NC1CCCCC1)=C1CCCCC1	-0.8	·	·	-6	112	i	0.98
COC(=O)c1ccc(CSc2nnc3n(Cc4ccccc4OC)c(=O)c4ccccc4n23)o1	·	·	·	·	102	i	0.65
O=C(O)CCCN=CC1=C(O)CNC1=O	·	-22	113	-3	109	i	0.87
Cc1ccc(COCCN2CCN(S(=O)(=O)c3ccccc3)CCC2=O)cc1	·	·	·	·	101	i	0.95
COc1ccc(C2CC(c3ccccc3)=NN2C(=O)COC(=O)C2CC2)cc1 (centres undefined)	-0.6	-23	95	-11	116	i	0.9
COc1cc2c(cc1C1NC(=S)NC(C)=C1C(N)=O)CCCC2 (centres undefined)	·	-33	97	-6	97	i	1.1
CCOC(=O)c1c(C)c(C(=O)NCc2ccco2)c(C)n1Cc1ccccc1	-3.2	·	·	-5	99	i	1
Cc1cc2c(c(=O)o1)C(C1C=CCCC1)C(C#N)=C(N)O2 (centres undefined)	-0.7	3	134	12	103	i	0.87

20 neighbouring entries out of the list so far, quoted:
SMILES	GALR2 ag	INS promoter inh	INS promoter inh cell count	PKD1 kinase inh	RGS16-Gao HTS	HSV augment	HSV augment primary fold
CCSc1nc(O)cc(=O)[nH]1	·	·	·	·	103	i	1.1
O=C(O)c1ccc(N(c2ccccc2)c2ccccc2)cc1	-1.4	-500	40	1	43	i	1.1
Cc1cc(NC(=O)COc2nnc(-c3ccccc3)c3ccccc23)no1	-1.2	-64	164	-15	278	i	1.1
Cc1cc(Cl)c(S(=O)(=O)N2CCCC2)cc1OCC(N)=O	·	·	·	0	103	i	0.93
CCn1c(O)c(N=NC(=O)CNC(=O)/C=C/c2ccco2)c2ccccc21	-1.5	13	128	2	145	i	1.1
Cc1nn(Cc2ccccc2)c(C)c1C(=O)NCCN1C(=O)S/C(=C\c2ccc(F)cc2)C1=O	-1.4	20	123	-3	105	i	0.94
Nc1ncnc(Oc2cccc3cccnc23)c1[N+](=O)[O-]	·	·	·	1	104	i	0.71
C=CCN1c2ccccc2[C@]23C[C@@H](C(=O)OC)N(C(=O)c4ccc(Br)cc4)C2=NC(C(=O)OC)=C(C(=O)OC)[C@H]13	·	·	·	·	105	i	0.71
CCOC(=O)COc1ccc(Br)cc1C1NC(=O)NC(C)=C1C(=O)NCc1ccccc1 (centres undefined)	-1.1	-136	28	4	100	i	1
CC(C)OC(=O)CN1CCN(S(=O)(=O)c2cc(Cl)ccc2Cl)CC1	-1.3	-6	73	-11	55	i	0.92
Cc1cccc(/C=N/NC(=O)Cc2cccs2)c1	·	·	·	·	99	i	1
Nc1nc(N)nc(-c2ccccc2O)n1	0.6	12	107	41	105	i	0.9
N#CC(C(=O)NC1CCCCC1)=C1CCCCC1	-0.8	·	·	-6	112	i	0.98
COC(=O)c1ccc(CSc2nnc3n(Cc4ccccc4OC)c(=O)c4ccccc4n23)o1	·	·	·	·	102	i	0.65
O=C(O)CCCN=CC1=C(O)CNC1=O	·	-22	113	-3	109	i	0.87
Cc1ccc(COCCN2CCN(S(=O)(=O)c3ccccc3)CCC2=O)cc1	·	·	·	·	101	i	0.95
COc1ccc(C2CC(c3ccccc3)=NN2C(=O)COC(=O)C2CC2)cc1 (centres undefined)	-0.6	-23	95	-11	116	i	0.9
COc1cc2c(cc1C1NC(=S)NC(C)=C1C(N)=O)CCCC2 (centres undefined)	·	-33	97	-6	97	i	1.1
CCOC(=O)c1c(C)c(C(=O)NCc2ccco2)c(C)n1Cc1ccccc1	-3.2	·	·	-5	99	i	1
Cc1cc2c(c(=O)o1)C(C1C=CCCC1)C(C#N)=C(N)O2 (centres undefined)	-0.7	3	134	12	103	i	0.87

(listing goes on)
SMILES	GALR2 ag	INS promoter inh	INS promoter inh cell count	PKD1 kinase inh	RGS16-Gao HTS	HSV augment	HSV augment primary fold
OC(Cn1cccn1)c1ccccc1 (centres undefined)	0.5	29	156	0	101	i	0.9
COC(=O)CNS(=O)(=O)c1ccc(C)cc1	-0.3	7	79	-13	111	i	1.1
O=C(Nc1ccc(Cl)cc1)c1ccncc1	-0.1	4	138	-2	101	i	0.95
CSCC[C@H](NC(=O)C(C)(C)Oc1ccc(Cl)cc1)c1nc2ccccc2[nH]1	-0.2	-80	56	-7	89	i	1
Cc1ccc2sc(N(CCCN(C)C)C(=O)c3ccc(S(=O)(=O)N(C)C)cc3)nc2c1C	·	·	·	7	98	i	1
O=C(NCCNCc1cccs1)c1ccccc1F	·	·	·	0	98	i	1.1
N#C/C(=C\c1c(N2CCCCC2)nc2ccccn2c1=O)C(=O)NC1CCS(=O)(=O)C1 (centres undefined)	13*	28	96	-13	56	i	1
COC(=O)c1cc(C(=O)CSc2nc(C)cc(C)n2)ccc1O	-1.1	6	111	-4	93	i	1
Cc1ccc(C)n1-c1ccc(-c2nnc3n2CCCCC3)s1	-0.9	-120	90	-10	99	i	1
Cc1ccc(-n2ncc3c(N4CCC(C(N)=O)CC4)ncnc32)c(C)c1	-0.8	·	·	7	121	i	0.82
CCCCCCCCCCCCCCCC[n+]1cccc(C(=O)N(CC)CC)c1	0.1	19	79	10	103	i	0.68
COC(=O)CNC(=O)C1CCCN1C(=O)OC(C)(C)C (centres undefined)	-0.2	10	131	-7	106	i	0.65
CNc1nc(NC#N)nc(SC)n1	·	·	·	·	98	i	0.91
Cc1ccc(N2C(=O)C3C4CC(=O)C(c5ccccc54)C3C2=O)cc1C (centres undefined)	-0.8	·	·	-1	109	i	1.1
Cc1cccn2cc(-c3ccccc3)nc12	-1.2	·	·	-14	100	i	0.95
CCOC(=O)c1c(NC(=O)COc2ccccc2)sc2c1CC(C)(C)NC2(C)C	·	-8	121	5	109	i	0.67
Cc1nn(-c2cccc(Cl)c2)c2c1C(c1cccnc1)C(C#N)=C(N)O2 (centres undefined)	-0.4	-23	72	19	99	i	1.1
CCCCN(CCCNC(=O)c1c(C)cc(=O)oc1C)c1ccccc1	0.3	-27	63	-3	98	i	1.1
Cc1cccc(OCC(=O)NNC(=O)c2cc3ccccc3oc2=O)c1	-2.0	-3	126	-2	411	i	0.89
O=C(COc1ccccc1F)N1CCc2ccccc2C1	·	-36	121	4	99	i	0.96
Cc1c(CN2CCN(c3cccc(C(F)(F)F)c3)CC2)c(=O)n(-c2ccccc2)n1C	-1.8	·	·	-8	98	i	1
CCN(CC)C(=O)c1ccc2c(c1)nnn2C	-0.6	17	139	-3	108	·	·
Cc1nn(-c2ccccc2)c(Cl)c1/C=N/NC(=O)c1cccnc1	-1.6	-25	100	6	104	i	0.96
O=S(=O)(Nc1ncccn1)c1ccc(-n2cnnn2)cc1	·	·	·	0	62	i	1
O=C(NC1(C(=O)NC2CCCCC2)CCCCC1)c1ccc2c(c1)OCO2	-0.2	-23	88	-1	·	i	0.62
CCOCN(C(=O)Cn1c(CO)nc2ccccc21)c1c(C)cccc1CC	-1.8	·	·	-5	103	i	1
CNc1ccccc(C(=O)/C=C/c2ccccc2OC)c1=O	-0.7	17	118	-11	86	i	1.1
COC(=O)c1ccc([N+](=O)[O-])cc1N1C(=O)C2C3CCC(C3)C2C1=O (centres undefined)	·	·	·	-5	97	i	0.99
CCOC(=O)c1c(C)cc(=O)oc1C	-1.8	-31	166	-10	-59	i	1.1
S=C(NC1CCCCC1)N1CCN(C2CCCCC2)CC1	·	·	·	-8	110	i	1

Quoted at random: 3 records from the list
SMILES	GALR2 ag	INS promoter inh	INS promoter inh cell count	PKD1 kinase inh	RGS16-Gao HTS	HSV augment	HSV augment primary fold
CCOC(=O)c1c(C)cc(=O)oc1C	-1.8	-31	166	-10	-59	i	1.1
COC(=O)c1ccc([N+](=O)[O-])cc1N1C(=O)C2C3CCC(C3)C2C1=O (centres undefined)	·	·	·	-5	97	i	0.99
O=C(NC1(C(=O)NC2CCCCC2)CCCCC1)c1ccc2c(c1)OCO2	-0.2	-23	88	-1	·	i	0.62
